CapD inh: Bacillus anthracis CapD inhibitors, primary screen, biochemical, fluorescence intensity. CapD gamma-glutamyltranspeptidase (Bacillus anthracis Ames Ancestor). purified CapD enzyme, fluorescence intensity read-out; stronger effect = lower value; some hits fall short of the stated cut. z-score (concentration not given with the values). 140,000 tested, 0.23% active. AID 492967, 2010;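 active = z-score under -4 in either of two replicates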;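 also: stock transfer was 100 nL into about 40 µL; score is relative to mean and spread of the plate; one replicate is shown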
AID504770: growth inhibition of E. coli YBA685, primary screen, V. cholerae RctB inhibitors; E. coli YBA685 rctB-dependent plasmid, OD600 growth, 3 h; stronger effect = lower value; z-score (test concentration not listed); 130,000 tested, 0.27% active;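 active = z-score under -2 on both plates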;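 also: wells of about 30 µL received 100 nL stock; score is relative to mean and SD of the test wells; the first replicate is given; strong numbers were not always called active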
Numbers without * were called inactive; x = not tested or not shown.

The line under a structure holds: AID504770 | CapD inh
> Oc1ccc(/C=N/N=C/c2ccc(O)cc2)cc1
    -1.3 | -4.63
> CC1(C)OC2OC(COC(=O)/C=C/c3ccccc3)C3OC(C)(C)OC3C2O1 (stereo not given)
    x | -0.285
> Cc1ccc(NCC2COc3ccccc3O2)cc1 (stereo not given)
    0 | 0.675
> CCc1nc2ccccc2c2c1C(=O)N(Cc1nc3ccccc3[nH]1)C2=O
    x | 1.04
> COC(=O)COc1ccc(/C=C2\C(=O)NC(=S)N(c3ccc(C(C)C)cc3)C2=O)cc1OC
    x | -0.27
> CN(C)c1cccc(C(=O)NCCc2c[nH]c3ccccc23)c1
    0.35 | x
> CCc1onc(C)c1C(=O)O
    0.25 | x
> N#CC1=C(SCC(=O)Nc2cc(Cl)cc(Cl)c2)NC(=O)CC1c1cccs1 (stereo not given)
    x | 0.215
> CCN1CCN(Cc2csc3c2CCCC3)CC1
    1.55 | -0.7
> O=C(Nc1ccccc1Cl)c1cc(-c2cccs2)nc2ccccc12
    0.05 | -0.8

(cont.)
The line under a structure holds: AID504770 | CapD inh
> Cc1ccc(C(=O)N2CC3(C)CC2CC(C)(C)C3)cc1 (stereo not given)
    -1.9 | x
> Cc1cc2ncc(-c3ccn(S(=O)(=O)c4ccc(Cl)cc4)c3)nc2cc1C
    -0.85 | 2.29
> Cc1cnc(NCCc2ccccc2)s1
    -0.75 | 0.4
> CCOC(=O)c1ccc(COC(=O)CCc2nc3ccccc3[nH]c2=O)cc1
    0.4 | 3.04
> COc1cc2c(cc1OC)-c1nnc(C)n1C1(CCCC1)C2
    -0.35 | -0.645
> Cc1csc(=O)n1CCC(=O)OCN1C(=O)c2ccccc2C1=O
    -0.05 | x
> Cc1cccc(N2C(C)C(=O)SC23CCCCC3)c1 (stereo not given)
    -0.05 | 0.06
> CCOc1ccc(C=C(C#N)C#N)cc1
    x | -0.18
> CCNC(=O)CON=C1c2ccccc2-c2ccccc21
    -0.3 | x
> COc1cc(C=C2C(=O)NC(=S)NC2=O)ccc1OCC(=O)O
    0.6 | 20

Next section:
The line under a structure holds: AID504770 | CapD inh
> CC(C)C1=NN2C(=N)/C(=C/c3ccccc3)C(=O)N=C2S1
    -0.25 | -1.03
> O=C(Nc1cccc2c1C(=O)c1ccccc1C2=O)c1ccc(S(=O)(=O)N2CCc3ccccc3C2)cc1
    x | -0.655
> CN1CCN(CP(=O)(N2CCCCC2)N2CCCCC2)CC1
    -0.05 | x
> CCOC(=O)c1cc2c(C(F)(F)F)cc(C(F)(F)F)nc2s1
    0.3 | x
> Cc1cccc(N2NC(=O)/C(=C/c3ccc4c(c3)n(C)c(=O)n4C)C2=O)c1
    1.9 | -0.395
> CCN1/C(=C2/SC(=S)NC2=O)Sc2ccccc21
    0.05 | 53.7
> CCOc1ccc(N=C2C(=O)Nc3ccc(C)c(Br)c32)cc1
    1.35 | -0.34
> COC(=O)C1CCC(=O)C(C(=O)OC)C1 (stereo not given)
    1.25 | -0.605
> c1ccc(C2C/C(=N\N3CCOCC3)c3ccccc3O2)cc1 (stereo not given)
    1.1 | x
> C/C=C/c1ccc(OC)cc1
    0 | x

Further results
The line under a structure holds: AID504770 | CapD inh
> O=C(Cn1ncc2ccsc2c1=O)N1CCN(Cc2ccccc2)CC1
    -0.5 | 0.37
> O=c1[nH]c(=O)n(C2CCCCC2)c(O)c1C=Nc1ccc(N2CCOCC2)cc1
    1.3 | -0.435
> CCOC(=O)c1c(NC(=O)CSc2nccn2C)sc2c1CCC(C)C2 (stereo not given)
    -0.35 | 0.115
> CCOC(=O)c1c(CN2CCOCC2)n(CC(=O)OC)c2cc(Br)c(OC)cc12
    x | -0.02
> CC(NC(=O)CN(C)Cc1cccs1)c1ccccc1 (stereo not given)
    0.05 | x
> CS(=O)c1ccc2c(c1)CCN2C(=O)Nc1ccc(Cl)cc1 (stereo not given)
    x | -0.04
> N#CCc1cccc(CC#N)c1F
    x | -0.655
> Brc1ccc(-c2nc(-c3ccccc3)[nH]c2-c2ccc(Br)cc2)cc1
    x | 11.9
> O=c1[nH]cnc2c(Cl)cc(Cl)cc12
    0.65 | x
> Nc1nc(-c2ccc(N3CCOCC3)c(F)c2)cs1
    -0.3 | -0.525

Further compounds follow.
The line under a structure holds: AID504770 | CapD inh
> O=C(O)c1cc2n(n1)C(C(F)(F)F)CC(C1CC1)N2 (stereo not given)
    -0.05 | x
> CC(C)(C)c1ccc(/C(N)=N/C(=O)N2CCOCC2)cc1
    0 | -0.26
> Cc1cc(Br)ccc1NC(=O)CCCNC(=O)Cn1cnc2sc3c(c2c1=O)CCCC3
    x | -0.295
> O=C(O)Cc1ccc(C(=O)CSc2nccc(-c3cccs3)n2)s1
    -0.45 | -3.51
> Cn1ncc2c(N3CCCC3)ncnc21
    3.75 | 0.09
> O=C(N1CCOCC1)n1ccnc1
    2.25 | x
> O=C(OCC(=O)N(C1CCCCC1)C1CCS(=O)(=O)C1)C1CC1 (stereo not given)
    0.15 | x
> O=C(CN1CCS(=O)(=O)CC1)N/N=C/c1cccc(C(F)(F)F)c1
    x | -0.015
> CCOCc1cn(CC(=O)c2ccc(OC(C)=O)c(OC(C)=O)c2)c(C)nc1=N
    -1.4 | x
> O=c1ccc2ccc(Oc3ncnc4scc(-c5ccc(F)cc5)c34)cc2o1
    1.05 | 0.375

The list goes on:
The line under a structure holds: AID504770 | CapD inh
> Cc1cc(C(=O)NN2CCOCC2)nc2c1c(C)nn2-c1ccccc1
    -0.05 | 58.6
> CCOc1ccc(NC(=O)CSc2nnc(C)n2CC2CCCO2)cc1 (stereo not given)
    -0.35 | x
> COc1ccc(CCNC(=S)Nc2ccc(Cl)cc2Cl)cc1OC
    x | -0.09
> Cc1cc2c(cc1S(=O)(=O)C(C)CC(=O)N1CCN(c3ccccc3F)CC1)OCC(=O)N2 (stereo not given)
    -0.6 | -0.755
> COc1ccc(C2c3cc4c(cc3OC3(O)CCCC(=O)C23)OCO4)cc1 (stereo not given)
    -1.65 | 0.015
> COC(=O)C1=C(C)NC(=O)/C1=C/c1ccc(CNS(=O)(=O)c2ccc(Cl)cc2)o1
    -0.7 | -0.005
> COc1ccc(S(=O)(=O)N2CC3(C)CC2CC(C)(C)C3)cc1 (stereo not given)
    -0.25 | x
> CSc1ccc(C2C(C(=O)Nc3ccccc3C(F)(F)F)=C(C)NC3=C2C(=O)CC(c2ccccc2)C3)cc1 (stereo not given)
    x | 48.5
> COc1ccc(NC(=O)c2ccccc2NS(C)(=O)=O)cc1Cl
    -0.05 | 7.05
> CC(=O)OCc1ccccc1Sc1ccccc1C(=O)Nc1ccccc1
    0.85 | 0.515

The list goes on.
The line under a structure holds: AID504770 | CapD inh
> CC(C)N1CCN(S(=O)(=O)c2ccc(Br)cc2)CC1
    x | 0.085
> Cc1cc(=O)oc2cc(OCC(N)=O)c(Cl)cc12
    -0.7 | 21.3
> O=C(NCCCn1cccn1)C1CCC1
    0.05 | 0.165
> CC(=O)C1=NN(c2ccccc2)C(c2ccc(N(C)C)cc2)N1c1ccc(C)cc1 (stereo not given)
    x | -0.295
> CCCC1C(c2ccccc2)NC(c2ccccc2)CC1(C)O (stereo not given)
    x | 0.135
> CCOC(Cn1c(Cc2ccccc2)nc2ccccc21)OCC
    -0.15 | x
> COc1ccc(CCNC(=O)c2cn[nH]c2C2CCNCC2)cc1OC
    -1.65 | 0.365
> O=C(C1CCN(c2nnc(-n3cccc3)s2)CC1)N1CCCC1
    -0.6 | -0.765
> O=C(Nc1ccc(Cl)c(Cl)c1)OCCNC(=O)c1cccc(Cl)c1
    x | 0.065
> CC(C)CC(=O)Nc1ccc(C(=O)NN)cc1
    1.75 | x

More compounds.
The line under a structure holds: AID504770 | CapD inh
> CC(=O)NC1C(OCc2ccc(Cl)cc2Cl)OC(CO)C(O)C1O (stereo not given)
    -0.2 | x
> O=C(NC1CCCCC1)c1sc(=S)n2c1[nH]c(=O)c1ccccc12
    1.85 | -1.46
> CC1CCCN(C(=O)COC(=O)c2cccc(Cl)c2)C1 (stereo not given)
    1.35 | -0.44
> O=[N+]([O-])c1ccc2c(c1)-c1ccccc1S(=O)(=O)N2
    x | -1.29
> O=C(COc1ccc(S(=O)(=O)N2CCCc3ccccc32)cc1)Nc1ccc2c(c1)OCO2
    -0.55 | -0.445
> FC(F)(F)c1cc(C(F)(F)F)c2ccc(N/N=C/c3ccco3)nc2n1
    x | -0.325
> COc1cc(C2Nc3ccccc3NC3=C2C(=O)CC(c2ccc4c(c2)OCO4)C3)cc(OC)c1O (stereo not given)
    x | -1.45
> Cn1/c(=N/S(C)(=O)=O)sc2ccccc21
    -0.65 | x
> O=C1CCC(C(=O)OCc2cccc3ccccc23)=NN1
    -0.15 | x
> O=C(Cn1cc2c(n1)CCCCC2)NCC1CCCO1 (stereo not given)
    -1 | -0.375

The list goes on:
The line under a structure holds: AID504770 | CapD inh
> O=C(CSc1nnc(Cc2cccs2)n1C1CC1)Nc1ccc(Cl)cc1F
    0.35 | x
> CCOC(=O)c1c(-n2cccc2)c2ccccc2n1Cc1ccccc1Cl
    x | 6.24
> O=C(CCc1nc2sc3c(c2c(=O)[nH]1)CCCC3)N1CCCCC1
    0.65 | 0.085
> COc1ccc(Br)cc1C=Nc1c(C)n(C)n(-c2ccccc2)c1=O
    x | -0.205
> C/C(=C\C#N)CCc1ccccc1
    -0.95 | -0.09
> c1ccc2c(CCNc3ncnc4nc[nH]c34)c[nH]c2c1
    -0.6 | x
> CCOc1ccc(C(=O)Nc2ccc(-c3nc4cc(C)cc(C)c4o3)cc2)cc1Cl
    x | 0.045
> C/C(=N\Oc1cccc(O/N=C(\C)c2ccc(F)cc2)n1)c1ccc(F)cc1
    x | 0.26
> Cc1cc(-c2ccc(C(C)C)c(S(=O)(=O)NCc3ccc(F)cc3)c2)on1
    -0.3 | 0.22
> CCOCCn1cnc2sc(C(=O)N3CCN(CC)CC3)c(C)c2c1=O
    x | 6.17

The list continues.
The line under a structure holds: AID504770 | CapD inh
> Cc1cc(S(=O)(=O)NC2CCCCC2)ccc1OCC(=O)NCC1CCCO1 (stereo not given)
    -0.15 | 0.19
> C=CCNC(=O)c1cc(-c2ccco2)on1
    -2.65 | 0.01
> O=c1cc(NCc2ccco2)[nH]c(=O)n1-c1ccc(Br)cc1
    -0.1 | 28.9
> Cc1ccc2c(Cl)c(C(N)=O)sc2c1
    2.1 | -0.05
> O=C(c1ccc2cn[nH]c2c1)N1CCN(c2ccccc2)CC1
    1.4 | -0.33
> CCCCN(C)C1=CC2=CC(=C(C#N)C#N)CCC2CC1 (stereo not given)
    -0.35 | x
> COC(=O)c1ccc(COC(=O)c2ccc(CN3CCCC3=O)cc2)cc1
    0.25 | x
> Nc1cccnc1Sc1nc2cccnc2s1
    -0.3 | 0.29
> Cc1sc(-n2c(C)cc(/C=C3\SC(=S)NC3=O)c2C)c(C#N)c1C
    -0.9 | -1.43
> N#Cc1ccccc1Cn1c(=O)n(C2CCCC2)c(=O)c2ccccc21
    0 | 0.9

7 compounds from above, sorted by number of heavy atoms, smallest number first:
The line under a structure holds: AID504770 | CapD inh
> Cc1ccc2c(Cl)c(C(N)=O)sc2c1
    2.1 | -0.05
> C=CCNC(=O)c1cc(-c2ccco2)on1
    -2.65 | 0.01
> CCCCN(C)C1=CC2=CC(=C(C#N)C#N)CCC2CC1 (stereo not given)
    -0.35 | x
> O=C(c1ccc2cn[nH]c2c1)N1CCN(c2ccccc2)CC1
    1.4 | -0.33
> Cc1sc(-n2c(C)cc(/C=C3\SC(=S)NC3=O)c2C)c(C#N)c1C
    -0.9 | -1.43
> N#Cc1ccccc1Cn1c(=O)n(C2CCCC2)c(=O)c2ccccc21
    0 | 0.9
> COC(=O)c1ccc(COC(=O)c2ccc(CN3CCCC3=O)cc2)cc1
    0.25 | x

(list continues)
The line under a structure holds: AID504770 | CapD inh
> COc1ccc(OC)c(S(=O)(=O)NC2CCCCC2)c1
    0 | -0.21
> N#CCCN1C(=O)c2ccccc2C1=O
    -1.4 | 0.3
> Cc1ccc(CC(C#N)Sc2nnc(C3CCCCC3)o2)cc1 (stereo not given)
    1 | x
> CC(C)(C)NC(=S)NCCc1ccccc1
    0.05 | 0.12
> C=CCn1c(=N)n(CC(O)C(C)(C)C)c2ccccc21 (stereo not given)
    -1.45 | -0.195
> Cc1c(C(=O)OCC(=O)c2cccs2)oc2ccccc12
    1.3 | x
> COC(=O)c1ccc(-c2ccco2)n1CC(=O)c1ccccc1
    -0.25 | 0.135
> CCCNC(=O)c1cc2sc(C)cc2n1C
    0.45 | -0.325
> CCCCN(CC)S(=O)(=O)c1ccc(F)c(C(=O)Nc2ccc(C)c(C)c2)c1
    x | -0.58
> O=C(O)CN1C(=O)C(=O)/C(=C(\O)c2ccc(Br)cc2)C1c1ccccc1 (stereo not given)
    x | -0.765

In the list so far, these have a tert-butyl group:
The line under a structure holds: AID504770 | CapD inh
> CC(C)(C)c1ccc(/C(N)=N/C(=O)N2CCOCC2)cc1
    0 | -0.26
> CC(C)(C)NC(=S)NCCc1ccccc1
    0.05 | 0.12
> C=CCn1c(=N)n(CC(O)C(C)(C)C)c2ccccc21 (stereo not given)
    -1.45 | -0.195

Next part.
The line under a structure holds: AID504770 | CapD inh
> Cc1cc(C)c(CCOC(=O)NC(Cc2c[nH]c3ccccc23)C(=O)OCc2ccccc2)c(C)c1 (stereo not given)
    x | 1.09
> O=C(CSc1nc2ccccc2c(=O)n1CCc1ccccc1)NCc1ccco1
    2.2 | -0.485
> CCC(C)(C)C1CCc2sc3nc[nH]c(=O)c3c2C1 (stereo not given)
    0.95 | 0.5
> NC(=O)c1ccc(OCc2ccccc2)cc1
    -1.75 | 0.155
> CN(C)c1ccc(C2=Nc3cccc4cccc(c34)N2)cc1
    x | -1.67
> CC1CC(NC(=O)c2ccc(Br)cc2)CC(C)(C)C1 (stereo not given)
    -0.7 | -0.225
> O=S(=O)(c1ccccc1)N1CC2c3ccccc3CCN2C1c1ccccc1 (stereo not given)
    x | -0.115
> CNC(=O)NC(=O)C(C)Sc1nc2sccc2c(=O)n1-c1ccccc1 (stereo not given)
    0.05 | x

Source: PubChem
